Vero viability – viability loss in Vero cells – cytotoxicity control for Vif-APOBEC3G degradation inhibitor project, dose response (AID 1117358); Vero viability, CellTiter-Glo ATP luminescence, 72 h; reference of the scale not given here; 2,300 compounds, 7% hits; CC50 in µM for hits, for the others viability, % at the top dose, mostly 40 µM;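 active = viability down to 80% or less at some dose; inactive = above 80% at all doses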
An asterisk follows results filed as active. Only part of the results is shown; count on the stated rates, not on these rows.

Compound,Vero viability
O=C(O)c1cc2cccc(S(=O)(=O)N3CCOCC3)c2cc1O,97%
COc1cccc(OC)c1OCCCc1c(C)n[nH]c1C,99%
O=C1CCCN1c1ccc(S(=O)(=O)N2CCC(c3ccccc3)CC2)cc1,92%
CNc1ccc(Br)cc(C(=O)/C=C/c2ccc3c(c2)OCO3)c1=O,110%
O=C(NCc1ccc2c(c1)OCO2)c1cc2ncc(Br)cn2n1,94%
Oc1cccc(/C=N/c2c(-c3ccco3)nc3ccccn23)c1,95%
COc1ccc(S(=O)(=O)N(C)Cc2cccs2)cc1Br,103%
c1cn2cc(CSC3CCCCC3)nc2s1,88%
N#Cc1ccc(CSc2nnc(Cc3cccs3)n2Cc2ccco2)cc1,96%
CCNc1ccc(Br)cc(C(=O)/C=C/c2ccc3c(c2)OCO3)c1=O,101%
CCOc1cccc(SCc2noc(C(=O)NCC3CCCO3)c2C(=O)O)c1 (stereo not given),103%
CC(=O)n1nc(-c2ccc(Cl)cc2)nc1NCc1ccco1,88%
CC(C)(C)NC(=O)COC(=O)c1cc(S(=O)(=O)N2CCCCC2)ccc1N1CCOCC1,92%
Cc1cc(C(C)c2ccccc2)c(O)c(CN2CCOCC2)c1C (stereo not given),101%
CN(C)C(CNC(=O)c1cccnc1Sc1ccccc1)c1ccco1 (stereo not given),96%
O=C(COc1cccc2cccnc12)N1CCc2ccccc2C1,90%
COCCNC(=S)c1ccc(OC)cc1,93%
COc1ccc(OC)c(/C(O)=C/C(=O)C(=O)Nc2cc(C)ccc2OC)c1,99%
O=C1CC(=O)N(Cc2ccco2)C(=S)N1,97%
Cc1nn(Cc2ccc(Cl)cc2)c(C)c1NC(=O)c1cc(-c2ccc3c(c2)OCO3)on1,83%
CCc1cc2c(CN3CCN(CC)CC3)cc(=O)oc2cc1O,95%
O=C(NCc1ccccn1)c1ccc2nc(-c3ccco3)c(-c3ccco3)nc2c1,99%
CCCNC(=O)Cn1c2ccccc2c2nc(=O)cc(C)n21,103%
CCOC(=O)c1c(C)[nH]c(C(=O)COC(=O)CSCC(=O)N(CC)CC)c1C,95%
COc1cccc(C(=O)CSc2nc3ccccc3n2CC(=O)N2CCOCC2)c1,96%
CCCCNC(=O)c1onc(CSc2ccc(C(C)C)cc2)c1C(=O)O,95%
CCOC(=O)CSc1nnc(-c2cccnc2)n1Cc1ccccc1,96%
O=C1C(O)CC2c3ccccc3CC3(CCCC3)N12 (stereo not given),95%
Cc1ccc(-n2[nH]c(=O)c3cccnc32)cc1,96%
COc1ccc(N(C(=O)COc2ccccc2OC)S(=O)(=O)c2ccc(C)cc2)cc1,96%
Cc1cc(C)cc(Nc2ccc(C(=O)O)cc2N)c1,105%
CCCc1n[nH]c2c1C(=O)C(C(=O)OC)C(C)(C)C2 (stereo not given),91%
COc1ccccc1CNS(=O)(=O)c1cccc(S(=O)(=O)N2CCOCC2)c1,112%
CCOC(=O)C1CCCN(C(=O)c2ccc3c(c2)OCO3)C1 (stereo not given),90%
CC1(C)CC(NS(=O)(=O)c2ccccc2)CC(C)(C)N1,95%
Cc1ccc(S(=O)(=O)C(F)(F)F)cc1NC(=O)c1cccnc1,97%
CC(Oc1ccc(Cl)cc1)c1ccnn1S(C)(=O)=O (stereo not given),94%
COC(=O)c1cc(=O)n(Cc2ccc3c(c2)OCO3)c(=Nc2ccc(F)c(Cl)c2)s1,97%
CCCn1c(Sc2nc3c(c(=O)[nH]c(=O)n3C)n2CCC)nc2c1c(=O)[nH]c(=O)n2C,90%
CCC(=O)N1CCN(c2ccccc2NC(=O)c2cccc(C)c2)CC1,107%
O=S(=O)(c1cccs1)n1nnc2ccccc21,97%
CCOC(=O)C1CCCN(c2ncnc3c2cnn3-c2ccc(Cl)cc2)C1 (stereo not given),95%
CC(C)c1ccc(/C=C/C(=O)N2CCc3ccccc3C2)cc1,>40µM*
Cc1cc2oc(=O)cc(C)c2c(=O)o1,97%
CC(=O)N1CCc2cc(S(=O)(=O)NC(C(=O)NC3CCCc4ccccc43)C(C)C)ccc21 (stereo not given),94%
CCOC(=O)CSc1nnc(-c2ccccc2NC(=O)c2ccccc2)o1,98%
O=C(c1cnn2cccnc12)N1CCN(Cc2ccc3c(c2)OCO3)CC1,91%
O=C(O)CCCNc1cc(N2CCC3(CC2)OCCO3)c2noc3c2c1C(=O)c1ccccc1-3,>40µM*
CSc1nc2ccc3nc(NC(=O)c4ccccc4)sc3c2s1,97%
CCOc1ccc(-n2cnnn2)cc1S(=O)(=O)NCCc1ccc(OC)c(OC)c1,95%
Cc1ccn2cc(CNS(=O)(=O)c3ccc(Cl)s3)nc2c1,104%
O=S(=O)(Nc1ccc2c(c1)OCCO2)c1cnc[nH]1,89%
CCOC(=O)CCN(Cc1sccc1C)S(=O)(=O)c1ccc(F)cc1,100%
COC(=O)c1ccc(CSc2nc3ccccc3c(=O)n2-c2ccc(OC)c(OC)c2)o1,93%
Cc1ccc(C)c(CN2C(=O)C(C)Oc3ccc(C)cc32)c1 (stereo not given),88%
CC(C)(C)NC(=O)C(c1ccncc1)N(C(=O)CNC(=O)c1ccco1)c1ccc2c(c1)OCO2 (stereo not given),95%
C=CCSc1nnc(-c2ccc(Cl)cc2Cl)o1,111%
Cc1ccc(C(=O)COC(=O)CNC(=O)Cc2ccccc2)cc1[N+](=O)[O-],90%
Cc1ccccc1NC(=O)c1c(C)[nH]c(=S)c(C#N)c1-c1ccco1,97%
O=C(Cn1ncc2c(=O)oc3ccccc3c21)N1CCCc2ccccc21,94%

Continued:
Compound,Vero viability
Cc1ccc(S(=O)(=O)CCC(=O)Nc2ccc3c(c2)OCO3)cc1,91%
CCCCCOc1ccc(C2C(C(C)=O)=C(C)Nc3ncnn32)cc1OC (stereo not given),97%
N=C1C(c2nc3ccccc3c(=O)[nH]2)=C(O)CN1c1ccccc1,93%
COc1cccc(/C=N/n2c(N)c(S(=O)(=O)c3cccs3)c3nc4ccccc4nc32)c1,90%
CC(C(=O)N1CCCCC1)n1ncn2cccc2c1=O (stereo not given),97%
COc1cccc2c1NC(C(=O)O)C1CC=CC21 (stereo not given),88%
CCN(CC)c1ccc(N=Cc2ccc(N(CC)CC)cc2O)cc1,100%
CCOC(=O)Cn1c(=O)oc2cc(S(=O)(=O)Nc3c(C)cc(C)cc3C)ccc21,98%
O=C(CCCN1C(=O)c2ccccc2C1=O)NCC1CCCO1 (stereo not given),103%
O=C(CNS(=O)(=O)c1ccccc1)OCC(=O)c1ccc(OC(=O)c2ccccc2)cc1,98%
COC(=O)c1ccc(NC(=S)NCCC2=CCCCC2)cc1,89%
O=C(Cc1ccccc1)NC(Nc1ccccc1)C(Cl)(Cl)Cl (stereo not given),97%
Cn1c(=O)c2c(nc(CN3CCOCC3)n2CCN2CCOCC2)n(C)c1=O,92%
CCOC(=O)CCC(=O)N1CCOCCN(C(=O)CCC(=O)OCC)CCOCC1,90%
N#CC(=C1SC=CS1)c1nc(-c2ccccc2)cs1,89%
CCOc1ccccc1C1CC(=O)NC(SCC)=C1C#N (stereo not given),94%
CC1(C)CCCN(C(=O)c2coc(=O)c(Br)c2)C1,109%
O=C(O)CSc1c2c(nc3cc(C(=O)N4CCOCC4)ccc13)CCCC2,95%
O=C(NC(=S)N1CCCc2ccccc21)c1ccccc1,91%
CCOC(=O)N1CCN(c2ccc(O)cc2)CC1,99%
CC(C)(C)NC(=O)C1N(c2cccnc2)C(=O)C2C(C(=O)Nc3ccccc3F)C3(C)C=CC21O3 (stereo not given),100%
CCCCC(=O)Nc1ccc(C(=O)NN2C(=O)c3ccccc3C2=O)cc1,97%
N#CC(C(=O)NCc1ccco1)c1nc2ccccc2nc1N1CCOCC1 (stereo not given),92%
COc1ccc(OC)c(S(=O)(=O)N2CCN(C)CC2)c1,104%
COc1ccccc1OCCOc1ccccc1/C=N/n1cnnc1,91%
CCCCCn1c(CN2CCN(c3cc(Cl)ccc3C)CC2)nc2c1c(=O)[nH]c(=O)n2C,103%
CSc1cccc(-n2cc(-c3ccc4c(c3)OCO4)[nH]c2=O)c1,>40µM*
OC(CN1CCCCC1)CN1CCCCC1,97%
CCOc1cc(C(=O)Nc2c3c(nn2C(C)(C)C)CS(=O)C3)cc(OCC)c1OCC (stereo not given),92%
Cc1cc(C)cc(N(C(C)C(=O)Nc2c(C)n(C)n(-c3ccccc3)c2=O)S(C)(=O)=O)c1 (stereo not given),88%
CC(c1nnc(SCn2nnc3ccccc3c2=O)n1-c1ccc(Cl)cc1)N(C)C (stereo not given),99%
Cc1cc2c(N)cccc2nn1,83%
C/C(=C\C(=O)c1ccc(C)cc1)Nc1cccc(O)c1,88%
CC(C)n1c(CCC(=O)O)ccc1-c1ccccc1,101%
COc1cc(NC(=O)c2cc3nc(-c4ccccc4)cc(-c4ccccc4)n3n2)cc(OC)c1OC,95%
COCCOC(=O)CC1=NC(=O)CS1,98%
COc1cccc(C2CC(c3ccccc3OC)n3nc(N)nc3N2)c1 (stereo not given),86%
c1ccc(Nc2ccccn2)cc1,99%
O=C(CN1C(=O)NC2(CCCCCCC2)C1=O)NCc1cccs1,100%
Cc1cccc(C)c1NC(=O)CCS(=O)(=O)c1cccc2nsnc12,95%
COc1ccc(C(=O)Nc2nncs2)cc1S(=O)(=O)N1CC(c2ccccc2)CC1=O (stereo not given),87%
COC(=O)C1CCN(C(=O)NC(C)(C)C)CC1,91%
CCOC(=O)C1=C(C)N=C2SC(C(=O)OC)=CC(=O)N2C1c1cc(OC)c(OC)c(OC)c1 (stereo not given),84%
O=S(=O)(/C=C/c1ccccc1)N1CCN(c2ccc(F)cc2)CC1,98%
N#Cc1cn(CCOc2ccccc2F)c2ccccc12,>40µM*
O=C(/C=C/c1ccccc1)NC(NC(=S)Nc1cc(Cl)ccc1Cl)C(Cl)(Cl)Cl (stereo not given),>40µM*
Cc1c(NS(=O)(=O)c2cccc(C(=O)NCc3ccncc3)c2)c(=O)n(-c2ccccc2)n1C,99%
CCCn1c(CNc2ccccc2O)nc2ccccc21,100%
CN1C(=O)c2ccccc2C(C(=O)O)C1c1cccc(F)c1 (stereo not given),100%
Cc1ccc(C2(C(F)(F)F)NC(=O)N3CCN=C3S2)cc1 (stereo not given),98%
O=C(CNC(=O)c1cccs1)OCC(=O)c1ccc2ccccc2c1,98%
CC(=O)Nc1nonc1NC(=O)CSC1=NCCS1,97%
O=C1c2ccccc2C(Nc2ccc(F)c(Cl)c2)N1c1ccccn1 (stereo not given),96%
N#Cc1nc(COc2ccc(Cl)cc2Cl)oc1N1CCOCC1,106%
CCN1CCN(C2=NC(=O)/C(=C/c3ccc(C)o3)S2)CC1,93%
CCCCCCn1c(SCC(=O)Nc2cc(C)on2)nc2ccccc2c1=O,105%
C=CCc1c(C)nc(C)nc1N/N=C/c1ccc(F)cc1,102%
Cc1ccc2cc(C(c3nnnn3Cc3ccccc3)N3CCc4ccccc43)c(=O)[nH]c2c1 (stereo not given),104%
CC1(C)CC(=O)C2=C(C1)N(Cc1ccc(F)cc1)C(=O)C2(NC(=O)c1cccnc1)C(F)(F)F (stereo not given),94%
O=C(c1cc(-c2ccco2)nn1-c1cccc(Cl)c1)N1CCCCC1,97%

As a working copy, some entries already given:
Compound,Vero viability
COC(=O)C1CCN(C(=O)NC(C)(C)C)CC1,91%
CCOC(=O)C1=C(C)N=C2SC(C(=O)OC)=CC(=O)N2C1c1cc(OC)c(OC)c(OC)c1 (stereo not given),84%
O=S(=O)(/C=C/c1ccccc1)N1CCN(c2ccc(F)cc2)CC1,98%
N#Cc1cn(CCOc2ccccc2F)c2ccccc12,>40µM*
O=C(/C=C/c1ccccc1)NC(NC(=S)Nc1cc(Cl)ccc1Cl)C(Cl)(Cl)Cl (stereo not given),>40µM*
Cc1c(NS(=O)(=O)c2cccc(C(=O)NCc3ccncc3)c2)c(=O)n(-c2ccccc2)n1C,99%
CCCn1c(CNc2ccccc2O)nc2ccccc21,100%
CN1C(=O)c2ccccc2C(C(=O)O)C1c1cccc(F)c1 (stereo not given),100%
Cc1ccc(C2(C(F)(F)F)NC(=O)N3CCN=C3S2)cc1 (stereo not given),98%
O=C(CNC(=O)c1cccs1)OCC(=O)c1ccc2ccccc2c1,98%
CC(=O)Nc1nonc1NC(=O)CSC1=NCCS1,97%
O=C1c2ccccc2C(Nc2ccc(F)c(Cl)c2)N1c1ccccn1 (stereo not given),96%
N#Cc1nc(COc2ccc(Cl)cc2Cl)oc1N1CCOCC1,106%
CCN1CCN(C2=NC(=O)/C(=C/c3ccc(C)o3)S2)CC1,93%
CCCCCCn1c(SCC(=O)Nc2cc(C)on2)nc2ccccc2c1=O,105%
C=CCc1c(C)nc(C)nc1N/N=C/c1ccc(F)cc1,102%

Additional structures:
Compound,Vero viability
CCOc1ccc(S(=O)(=O)Nc2ccc(S(=O)(=O)N3CCCCC3)cc2)cc1,95%
Cc1ccc(-n2nc(C(=O)O)c3ccccc3c2=O)cc1C,99%
COc1ccc(S(=O)(=O)NCc2ccccn2)cc1,95%
CCOC(=O)CNc1ccc2c(c1)OCO2,91%
O=C1NC(c2ccc(Br)cc2)=N/C1=C/c1ccco1,97%
O=C(N/N=C/c1ccc(F)cc1)c1ccc(Br)cc1,90%
O=C(NCCNC(=O)c1cc(OCC(F)(F)F)ccc1OCC(F)(F)F)Nc1cccc(C(F)(F)F)c1,92%
COc1ccc(CNC(=O)c2c(-c3cc(Cl)c(OC)c(Cl)c3)noc2C)cc1,96%
CCN(C(=O)CN1CCN(c2ccc(O)cc2)CC1)c1c(N)n(Cc2ccccc2)c(=O)[nH]c1=O,>40µM*
CC1(C)C2CCC1(C)C(NC1=NCCC1)C2 (stereo not given),103%
